High-throughput results from PubChem BioAssay.
RanGTP-Imp inh: disruptors of Ran-importin-beta complex formation – biochemical, FRET, CFP-Ran, YFP-importin-beta, homogeneous, primary screen; inhibition, % (no concentration beside the values); AID 2216; cell-free CFP-Ran/YFP-importin-beta FRET ratio; hit rate 1.1% among 300,000;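 active = most replicates above 15%; inconclusive = exactly half above 15%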;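 also: 0% = DMSO wells and 100% = Ran loaded with GDP instead of GTP; wells of about 40 µL received 100 nL stock; the first replicate is given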
A1 inh: inhibitors of the anti-apoptotic protein A1, read as caspase activation. MEF A1-2A-BIM cells, Caspase-Glo 3/7 luminescence, 3 h; percent of clofoctol response, vehicle zero. caspase activation, % (test concentration not listed). hit rate 0.066% among 330,000;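 active = over half of replicate activation scores above 10%, or exactly half above 10 with the replicate mean above 10; inconclusive = replicate mean below 10 yet half the replicates above 10; inactive = over half of replicates below 10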;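 also: wells of about 30 µL received 50 nL stock; many hits fall short of the cut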
Ecoli rRNA inh: inhibits bacterial ribosomal RNA function over humanized ribosomes | E. coli WT GFP vs humanized-ribosome RFP mutants, fluorescence, 24 h; stronger effect = lower value; DMSO median 0, no signal -100 | GFP signal change (wild-type ribosome), % (test concentration not listed) | hit rate 1.6% among 350,000;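 active = significant combined selectivity score with lowered wild-type GFP, culture density cut under 30%, mutant RFP and density less affected; inactive = any of these conditions unmet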; also: one replicate is shown; some compounds called inactive have numbers as strong as hits
Beta cell apopt: beta cell apoptosis inhibition; hit rate 0.8% among 300,000; INS-1E cytokine-induced death, ATP luminescence, 48 h; percent of positive-control rescue, neutral wells zero; protection from apoptosis, % (test concentration not listed);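 active = all replicates at 75% or more, or half of them and the mean; inconclusive = half reach 75% but not the mean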;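 also: 0% = cytokine-treated negative control wells and 100% = positive control rescue; higher means more ATP so stronger rescue from cytokine killing; wells of about 40 µL received 100 nL stock; the first replicate is given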
MLL AF4-AF9 inh: blocks AF4 peptide binding to human AF9. AlphaScreen, biotin-AF4 peptide binding to FLAG-AF9. AID 651704. P42568. hit rate 0.47% among 350,000. inhibition, % at 10 µM;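 active = every replicate reaching a set inhibition limit, whatever the replicate mean, cut at about 25% in these data; inconclusive = mean inhibition reaches that limit but some replicates miss it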;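 also: 0% = plate neutral control median and 100% = total signal loss; the record names both 10 and 1 µM as test concentration; the first replicate is given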
Target sequence (P42568 whole entry, looked up): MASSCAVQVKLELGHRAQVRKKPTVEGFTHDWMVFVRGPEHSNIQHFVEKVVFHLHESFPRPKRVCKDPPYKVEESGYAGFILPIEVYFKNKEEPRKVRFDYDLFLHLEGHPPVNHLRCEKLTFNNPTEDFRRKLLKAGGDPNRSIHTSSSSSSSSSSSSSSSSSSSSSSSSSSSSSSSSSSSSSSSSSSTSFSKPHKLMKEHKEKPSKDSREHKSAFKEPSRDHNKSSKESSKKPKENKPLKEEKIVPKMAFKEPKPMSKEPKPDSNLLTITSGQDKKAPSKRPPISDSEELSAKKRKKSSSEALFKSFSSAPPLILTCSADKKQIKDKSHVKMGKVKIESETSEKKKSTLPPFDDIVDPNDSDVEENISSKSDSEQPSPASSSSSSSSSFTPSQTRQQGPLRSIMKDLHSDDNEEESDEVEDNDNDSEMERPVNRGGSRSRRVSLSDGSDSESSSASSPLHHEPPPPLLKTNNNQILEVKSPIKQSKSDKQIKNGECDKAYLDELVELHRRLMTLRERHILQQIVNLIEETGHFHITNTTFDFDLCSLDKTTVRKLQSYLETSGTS
Vif TR-FRET: HIV-1 Vif–A3G interaction blockers – biochemical, TR-FRET, GST-Vif 1-94, biotin-A3G peptide, dose response retest, primary screen (AID 1117319) | TR-FRET GST-Vif / biotin-A3G peptide binding; higher % means a stronger effect; test concentration not given here; strong numbers were not always called active | one-dose inhibition, %; IC50 in µM for titrated hits | hit rate 0.57% among 260,000;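 active = above the screen mean plus three standard deviations and confirmed in dose response; inconclusive = results disagree or hit not tested in dose response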;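 also: Vif residues 1-94 fused to GST binding biotinylated APOBEC3G peptide 110-148; 0% = full assay without inhibitor and 100% = GST in place of GST-Vif; retest series ran down from 100 µM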
Calb FLC: C. albicans growth modulation with fluconazole; C. albicans CaCi-2 (fluconazole-resistant clinical isolate) + fluconazole, Alamar Blue growth, 48 h; hit rate 0.57% among 300,000; growth inhibition, % (concentration not given with the values);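 active = most replicates above 75%; inconclusive = exactly half above 75%; inactive = most below 75%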;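 also: all wells also contain fluconazole at 8 µg/ml as a sub-toxic cotreatment; 0% = median of DMSO wells and 100% = median of geldanamycin control wells; wells of about 8 µL received 7.5 nL stock; the first replicate is given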
T cruzi inh: blocks replication of Trypanosoma cruzi. T. cruzi beta-gal in NIH3T3, luminescence, 90 h. inhibition, % (concentration not given with the values). hit rate 1.4% among 300,000;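 active = mean inhibition across valid replicates above about 55%, limit read from the data; inconclusive = mean below that limit but half or more replicates reach it; inactive = mean below it, under half of replicates reach it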;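 also: signal also drops with host cell toxicity which is not excluded here; 0% = plate median of DMSO wells and 100% = zero luminescence signal; higher percent means less beta-gal luminescence so fewer parasites; stock transfer was 50 nL into about 50 µL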
Ecoli rRNA inh OD600: recorded beside Ecoli rRNA inh, whose call it bears; OD600 change, %; measured here: OD600 growth;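 optical density of the mix in the first replicate; 0 = DMSO median and -100 = no signal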
Ecoli rRNA inh RFP: recorded beside Ecoli rRNA inh, whose call it bears; RFP signal change, %; measured here: RFP humanized mutant strains;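 first replicate; 0 = DMSO median and -100 = no signal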
* marks the source's active call; other numbers are inactive results; & = joins results of further samples. A portion of the library (hit frequency here may not be typical).

Screening CC(=O)c1ccc(OCCCN2CCCCC2)cc1 returned RanGTP-Imp inh -3.8, A1 inh -0.3, Ecoli rRNA inh 4, Beta cell apopt -11, Vif TR-FRET -2%, Calb FLC 7, T cruzi inh -13, Ecoli rRNA inh OD600 14 and Ecoli rRNA inh RFP 2.0.
Screening O=C(CSc1nnc(C2CC2)n1-c1ccccc1)NCCc1ccccc1 returned RanGTP-Imp inh 3.2, A1 inh -0.3, Beta cell apopt 1, Vif TR-FRET 1%, Calb FLC -1 and T cruzi inh 6.
COc1ccc(NS(=O)(=O)c2cc(NC(=O)c3ccc(=O)[nH]c3)ccc2N2CCOCC2)cc1 was read as RanGTP-Imp inh 0.0, A1 inh 0.1, Ecoli rRNA inh -11, Beta cell apopt -5, MLL AF4-AF9 inh 3.9, Vif TR-FRET 6%, Calb FLC -7, T cruzi inh -24, Ecoli rRNA inh OD600 -10 and Ecoli rRNA inh RFP -2.8.
`N#CC(=C1CCCC1)c1nc(-c2ccc(Cl)cc2)cs1` gave RanGTP-Imp inh -2.7, A1 inh -0.3, Beta cell apopt 5, Vif TR-FRET 17%, Calb FLC 3 and T cruzi inh 31.
`CC(=O)NC12CC3CC(C1)CC(C(=O)N(C)CC(=O)Nc1ccc(F)c(F)c1F)(C3)C2` gave A1 inh 0.3, Beta cell apopt -1, MLL AF4-AF9 inh -0.9 and Vif TR-FRET 8%.
Screening COc1ccc2c(c1)[nH]c1c(=O)n(CCc3cnc[nH]3)cnc12 returned RanGTP-Imp inh -0.9, A1 inh 0.1, Beta cell apopt 3, Vif TR-FRET -2%, Calb FLC -21 and T cruzi inh 6.
For COc1ccc(CCNC(=O)C2CCN(S(C)(=O)=O)CC2)cc1OC the results were RanGTP-Imp inh 2.4, A1 inh 0.0, Ecoli rRNA inh 11, Beta cell apopt -9, MLL AF4-AF9 inh -11, Vif TR-FRET 0%, Calb FLC -20, T cruzi inh -3, Ecoli rRNA inh OD600 6 and Ecoli rRNA inh RFP -5.1.
`CC1CCN(C(=S)NC2CC3CCC2C3)CC1` (stereo not given) gave RanGTP-Imp inh 0.5, A1 inh 0.0, Beta cell apopt 2, Vif TR-FRET -11%, Calb FLC 0 and T cruzi inh 11.
`CCOC(=O)C1CCC(CN(Cc2ccccc2)S(=O)(=O)c2ccc([N+](=O)[O-])cc2)CC1` (stereo not given) gave RanGTP-Imp inh 3.2, A1 inh -0.3, Beta cell apopt 2, MLL AF4-AF9 inh 1.1, Vif TR-FRET 11%, Calb FLC 4 and T cruzi inh 37.
O=[N+]([O-])c1cc(Cl)c2cccnc2c1O was read as RanGTP-Imp inh -2.2, A1 inh -0.4, Ecoli rRNA inh -57, Beta cell apopt -14, MLL AF4-AF9 inh -0.2, Vif TR-FRET -6%, Calb FLC 102*, T cruzi inh -7, Ecoli rRNA inh OD600 -77 and Ecoli rRNA inh RFP -16.
Screening CCOc1cc(C(=S)N2CCOCC2)ccc1OS(=O)(=O)c1ccc(OC)cc1 returned RanGTP-Imp inh -0.6, A1 inh 0.3, Ecoli rRNA inh -14, Beta cell apopt -3, MLL AF4-AF9 inh -0.7, Calb FLC -3, T cruzi inh 15, Ecoli rRNA inh OD600 -15 and Ecoli rRNA inh RFP -2.7.
Screening COc1ncnc(-c2ccccc2)c1-c1ccccc1 returned RanGTP-Imp inh -1.5, A1 inh -0.4, Ecoli rRNA inh -10, Beta cell apopt -7, MLL AF4-AF9 inh -1.9, Calb FLC -3, T cruzi inh 2, Ecoli rRNA inh OD600 14 and Ecoli rRNA inh RFP 2.3.
Screening CCN(CC)c1ccc(N=Nc2ncn[nH]2)cc1 returned RanGTP-Imp inh -9.7, A1 inh -0.7, Ecoli rRNA inh 6, Beta cell apopt 3, MLL AF4-AF9 inh 3.1, Vif TR-FRET -2%, Calb FLC 10, T cruzi inh -6, Ecoli rRNA inh OD600 -5 and Ecoli rRNA inh RFP 2.4.
Screening CC(NC(=O)/C(C#N)=C/c1ccc(N2CCOCC2)cc1)c1ccccc1 (stereo not given) returned RanGTP-Imp inh 31*, A1 inh -0.6, Ecoli rRNA inh -8, Beta cell apopt -1, MLL AF4-AF9 inh 5.4, Calb FLC -6, T cruzi inh 4, Ecoli rRNA inh OD600 -29 and Ecoli rRNA inh RFP 5.7.
COc1ccc(CCC(=O)NCCc2cn3c(C)csc3n2)cc1 was read as RanGTP-Imp inh inconclusive, A1 inh -1.2, Ecoli rRNA inh -2, Beta cell apopt -3, MLL AF4-AF9 inh -5.4, Vif TR-FRET 4%, Calb FLC 2, T cruzi inh 0, Ecoli rRNA inh OD600 -1 and Ecoli rRNA inh RFP -1.7.
Cc1nc2c(-c3ccccc3)c(C)nn2c(C)c1CC(=O)O was read as RanGTP-Imp inh 4.6, A1 inh -0.3, Beta cell apopt -3, Vif TR-FRET inconclusive, Calb FLC -6 and T cruzi inh -8.
For COc1ccc(S(=O)(=O)N2CCCCC2)cc1NC(=O)Cc1sc(C)nc1-c1ccc(F)cc1 the results were RanGTP-Imp inh 8.3, A1 inh -0.2, Ecoli rRNA inh -6, Beta cell apopt 8, MLL AF4-AF9 inh 11, Vif TR-FRET -1%, Calb FLC -8, T cruzi inh 18, Ecoli rRNA inh OD600 8 and Ecoli rRNA inh RFP -0.6.
Screening COC(=O)c1oc2ccc(Br)cc2c1NC(=O)CN1CCN(C)CC1 returned RanGTP-Imp inh inconclusive, A1 inh -0.2, Beta cell apopt 0, Calb FLC -5 and T cruzi inh -12.
For O=C1c2ccccc2C(=O)N1CCSc1nncs1 the results were RanGTP-Imp inh 3.5, A1 inh 0.5, Beta cell apopt 0, Vif TR-FRET 10%, Calb FLC -8 and T cruzi inh 4.
COc1ccc(OCCCC(=O)OC(C)C(=O)Nc2ccccc2[N+](=O)[O-])cc1 (stereo not given) was read as A1 inh 0.3, Ecoli rRNA inh -11, Beta cell apopt -8, MLL AF4-AF9 inh 3.7, Vif TR-FRET -12%, Calb FLC 2, T cruzi inh -15, Ecoli rRNA inh OD600 -10 and Ecoli rRNA inh RFP 4.2.
For Cc1cccc(CCNC(=O)C2CCC(=O)N(Cc3ccc(Cl)cc3)C2)n1 (stereo not given) the results were RanGTP-Imp inh 1.4, A1 inh 0.7, Ecoli rRNA inh 3, Beta cell apopt -5, MLL AF4-AF9 inh 1.3, Vif TR-FRET 3%, Calb FLC -6, T cruzi inh 0, Ecoli rRNA inh OD600 4 and Ecoli rRNA inh RFP 0.1.
For C=CCSc1nc(Cc2ccc(Cl)cc2)nc2ccccc12 the results were RanGTP-Imp inh 6.9, A1 inh 0.1, Beta cell apopt 53, Vif TR-FRET -8%, Calb FLC -4 and T cruzi inh 10.
`COC(=O)C(Cc1ccccc1)NS(=O)(=O)c1ccccc1Br` (stereo not given) gave RanGTP-Imp inh -0.8, A1 inh -0.2, Vif TR-FRET 6%, Calb FLC -13 and T cruzi inh -10.
Screening CC1(C)CC(=O)N(CC(=O)NCc2ccccc2)c2ccccc2S1(=O)=O returned RanGTP-Imp inh 4.4, A1 inh 2.0, Ecoli rRNA inh -1, Beta cell apopt 2, MLL AF4-AF9 inh 0.4, Vif TR-FRET -3%, Calb FLC -5, T cruzi inh -5, Ecoli rRNA inh OD600 4 and Ecoli rRNA inh RFP -0.9.
`CCOC(=O)NC(=O)CSc1nc(-c2ccc(C)c(C)c2)cn1-c1ccccc1` gave RanGTP-Imp inh 0.4, A1 inh -0.1, Beta cell apopt -1, Calb FLC -1 and T cruzi inh 15.
CCCCOc1ccc(Cc2c(O)nc(SC)[nH]c2=O)cc1 was read as RanGTP-Imp inh -0.8, A1 inh 2.0, Ecoli rRNA inh 16, Beta cell apopt -1, MLL AF4-AF9 inh 1.4, Calb FLC 9, T cruzi inh 10, Ecoli rRNA inh OD600 16 and Ecoli rRNA inh RFP 1.4.
For Cc1nc2oc3ccc(F)cc3c(=O)c2cc1C(=O)O the results were RanGTP-Imp inh -0.3, A1 inh -8.6, Ecoli rRNA inh 5, Beta cell apopt 4, MLL AF4-AF9 inh -0.7, Vif TR-FRET 1%, Calb FLC 3, T cruzi inh -12, Ecoli rRNA inh OD600 3 and Ecoli rRNA inh RFP 1.4.
Screening COc1cccc(N2CC(C(=O)NCc3n[nH]c(=O)c4ccccc34)CC2=O)c1 (stereo not given) returned RanGTP-Imp inh 4.4, Ecoli rRNA inh 5, MLL AF4-AF9 inh -1.2, Vif TR-FRET 4%, Calb FLC -3, T cruzi inh -21, Ecoli rRNA inh OD600 5 and Ecoli rRNA inh RFP 1.5.
Screening Cc1cc2cc(C)c(NCCNC(=O)c3ccccc3)nc2cc1C returned RanGTP-Imp inh -4.0, A1 inh 1.1, Ecoli rRNA inh -58, Beta cell apopt -2, MLL AF4-AF9 inh -0.9, Vif TR-FRET 7%, Calb FLC 20, T cruzi inh 12, Ecoli rRNA inh OD600 -82 and Ecoli rRNA inh RFP -20.
`O=C(N/N=C\c1ccc(CN(Cc2ccc(Cl)cc2)S(=O)(=O)c2ccccc2)o1)C(=O)Nc1ccc(F)cc1` gave RanGTP-Imp inh 4.8, A1 inh inconclusive, Beta cell apopt 5, Vif TR-FRET 5%, Calb FLC 14 and T cruzi inh -8.
COc1ccc(CN(C)C(=O)c2cccc(S(=O)(=O)N3CCc4ccccc43)c2)c(OC)c1 was read as A1 inh 1.5, Ecoli rRNA inh -27, Beta cell apopt -2, MLL AF4-AF9 inh 1.2, Ecoli rRNA inh OD600 -27 and Ecoli rRNA inh RFP 4.5.
`O=C(O)CC1CCC(=C(Cl)Cl)C1` (stereo not given) gave A1 inh 0.5, Ecoli rRNA inh 8, Beta cell apopt -9, MLL AF4-AF9 inh -11, Vif TR-FRET 9%, Ecoli rRNA inh OD600 3 and Ecoli rRNA inh RFP -1.1.
For Cc1ccc(NC(=O)c2sc3nc4c(c(-c5ccco5)c3c2N)CCC4)cc1 the results were RanGTP-Imp inh -18, A1 inh 1.5, Beta cell apopt -4, Vif TR-FRET 7%, Calb FLC -1 and T cruzi inh 13.
Screening Nc1nc(-c2ccc(C(=O)O)cc2)cs1 returned RanGTP-Imp inh 2.9, A1 inh -3.8, Ecoli rRNA inh 15, Beta cell apopt -2, MLL AF4-AF9 inh -1.8, Vif TR-FRET 31%, Calb FLC -2, T cruzi inh 20, Ecoli rRNA inh OD600 8 and Ecoli rRNA inh RFP 0.1.
`O=S(=O)(/N=C(/Nc1cccc2ccccc12)c1ccccc1)c1ccccc1` gave RanGTP-Imp inh -3.9, A1 inh -0.1, Ecoli rRNA inh -13, Beta cell apopt 2, MLL AF4-AF9 inh 2.3, Calb FLC 32, T cruzi inh 18, Ecoli rRNA inh OD600 -36 and Ecoli rRNA inh RFP -2.2.
`O=C(CN1C(=O)c2cccc3cccc1c23)NCC1CCCO1` (stereo not given) gave RanGTP-Imp inh 5.0, A1 inh 0.2, Beta cell apopt -9, Vif TR-FRET 0%&3% and Calb FLC 2.
